# Compound activity (PubChem)
# Mtb H37Rv: Confirmatory growth inhibition assay against Mycobacterium tuberculosis H37Rv, potency (AID 1949). 1.6% of 100,000 active. most inactive calls were filed without a number and no value below 0 was filed. inhibition, % at 10 µg/mL; hits with a dose series show IC50 in µg/mL;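 active = confirmed in a dose series; inconclusive = about 50% or more but not retested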;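 note: bacteria grown 7 days with compound before Alamar blue readout; 0% = untreated bacteria and 100% = reference antibiotic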
# An asterisk follows results filed as active; i = inactive; ? = inconclusive. This is a subset; the hit share may differ from the screen's.
SMILES,Mtb H37Rv
CC(C(=O)NC1CCCCC1)N1c2cccc3cccc(c23)S1(=O)=O (stereo not given),2.1%
CCCCC(=O)Nc1ccc(NC(=S)NC(=O)c2cccs2)cc1OC,10.1%
COc1ccc(NC(=O)Nc2c(C(C)C)cccc2C(C)C)cc1OC,2.2%
Cc1cccc(-n2c(C)nnc2SCC(=O)Nc2ccc(Br)cc2Cl)c1,i
CCOC(=O)c1c(NC(=O)c2cccnc2)sc(C(C)=O)c1C,0.9%
CCCCc1ccc(S(=O)(=O)NCCc2ccncc2)cc1,i
Cc1ccc(S(=O)(=O)N(C)CC(=O)Nc2c(F)cccc2F)cc1,2.3%
O=C(c1ccccc1CCc1ccccc1)N1CCCC1,i
CC(=O)Nc1ccc(C(=O)n2nnc3ccccc32)cc1,i
COc1ccc(OC)c(S(=O)(=O)N2CCN(c3ccc(C)c(C)c3)CC2)c1,i
COC(=O)Cc1c(C)c2ccc(OC)c(C)c2oc1=O,i
Cc1cccc(C)c1NC(=O)CN(Cc1ccc(Br)cc1)S(=O)(=O)c1ccccc1,1.2%
Cc1cccc(NC(=S)N2CCC(C(N)=O)(N3CCCCC3)CC2)c1C,i
COc1ccc(S(=O)(=O)N2CCN(Cc3ccc4c(c3)OCO4)CC2)cc1[N+](=O)[O-],i
Cc1cccc(C)c1NC(=O)CSc1ccccc1,i
Cc1cccc(NC(=O)CSCc2ccc(Cl)cc2)c1C,i
Cc1ccccc1OCC(=O)Nc1ccc2nn(-c3ccccc3)nc2c1,i
Cc1cc(N(CC(=O)O)S(C)(=O)=O)ccc1Br,i
CC12CCC(C(=O)N(c3nc4c(s3)CCCC4)C1=O)C2(C)C (stereo not given),i
CCC(Sc1nnc(-c2ccc(NC(C)=O)cc2)n1C)C(=O)Nc1ccc(Br)cc1 (stereo not given),i
Cc1ccc(NC(=O)C2c3ccccc3Oc3ccccc32)nc1,i
CCCCNC(=O)COc1ccc(C)cc1,i
Cc1sc2ncnc(NCc3ccccc3)c2c1C,i
Cc1ccc(C(=O)Nc2c(C)cc(Br)cc2C)cc1C,?
Cc1cc(NC(=O)c2cccc([N+](=O)[O-])c2)c(C)cc1O,i
CC(=O)Nc1ccc(NC(=O)c2cc(-c3ccncc3)nc3c(C)cc(C)cc23)cc1,6.2%
CCSc1nnc2sc3ccccc3n12,i
CCCCc1ccc(NS(=O)(=O)c2cccs2)cc1,i
COc1ccc([N+](=O)[O-])cc1NC(=O)c1ccc(CSc2ccc(Cl)cc2)cc1,4.0%
Cc1cc(C)c(OCC(=O)Nc2ccc(C(=O)Nc3ccc(O)cc3)cc2)cc1C,i

# Part of the list above, as labelled records.
> Cc1ccc(NC(=O)C2c3ccccc3Oc3ccccc32)nc1
  Mtb H37Rv: i

> CCCCNC(=O)COc1ccc(C)cc1
  Mtb H37Rv: i

> Cc1sc2ncnc(NCc3ccccc3)c2c1C
  Mtb H37Rv: i

> Cc1ccc(C(=O)Nc2c(C)cc(Br)cc2C)cc1C
  Mtb H37Rv: ?

# Carrying on:
SMILES,Mtb H37Rv
Cc1cc(=O)oc2cc(OS(=O)(=O)c3ccccc3)ccc12,i
COc1ccc(-n2c(-c3ccncc3)n[nH]c2=S)cc1,i
CCCCOc1cccc(C2c3c(oc4ccccc4c3=O)C(=O)N2c2nnc(C)s2)c1 (stereo not given),i
COC(=O)COc1ccc(Cl)cc1C1NC(=S)NC(C)=C1C(=O)OC (stereo not given),i
CCOC(=O)N1CCN(C(=O)COc2ccc(S(=O)(=O)N3CCCCC3)cc2)CC1,i
CCN1CCN(C(=S)Nc2ccccc2C)CC1,i
Cc1ccc(S(=O)(=O)N2CCCC2C(=O)OCc2ccco2)cc1 (stereo not given),i
Cc1ccc(CNC(=O)Cn2cnc3c2c(=O)n(C)c(=O)n3C)cc1,i
CCCc1cc(=O)[nH]c(SCC(=O)Nc2ccc(Cl)cc2C)n1,6.1%
CC(C)=CCOc1ccc2c(C)c(C)c(=O)oc2c1C,i
O=C(CSc1ncnc2sc3c(c12)CCCC3)N1CCc2ccccc21,i
CCC(=O)NC(=S)Nc1ccc(N2CCN(C(C)=O)CC2)cc1,i
CCN(CC)CCn1c(=N)n(CC(O)COc2ccc(OC)cc2)c2ccccc21 (stereo not given),i
CCOC(=O)CCCCC(=O)c1[nH]c(=O)n(C(=O)c2ccccc2)c1C,i
Cc1cc(C)c2c(N)c(C(=O)Nc3c(C)n(C)n(-c4ccccc4)c3=O)sc2n1,i
CC(=O)NS(=O)(=O)c1ccc(NC(=S)NC(=O)c2cccc3ccccc23)cc1,i
COc1cc(NS(=O)(=O)N2CCCC2)cc(OC)c1OC,i
CS(=O)(=O)N(Cc1ccccc1)c1ccc(C(=O)N2CCOCC2)cc1,i
CS(=O)(=O)N(CC(=O)NCc1ccccn1)c1ccc(C23CC4CC(CC(C4)C2)C3)cc1,i
Cc1ccc(O)c(C(CC(=O)NC(C)C)c2ccccc2)c1 (stereo not given),i
CCCCOc1ccc(S(=O)(=O)Nc2ccc(C)c(Cl)c2)cc1,5.13µg/mL*
COc1ccc(Cl)cc1NC(=S)N1CCN(c2ncccn2)CC1,i
O=C(c1cccc(Cl)c1)N1CCC(C(=O)N2CCN(c3ccccc3)CC2)CC1,i
Cc1ccc(NC2CC(=O)N(c3cccc(C(F)(F)F)c3)C2=O)cc1 (stereo not given),i
Cc1cc(Cl)c(OCCN(C)Cc2ccccc2)c(Br)c1,2.7%
Cc1cc(OCC(N)=O)cc(C)c1Br,i
CCOC(=O)c1sc2ncn(CC(=O)Nc3cccc(C(F)(F)F)c3)c(=O)c2c1C,i
O=C(CSc1ccccc1)Nc1nnc(/C=C/c2ccccc2)s1,i
COC(=O)c1sccc1NC(=O)c1cc2cccc(OC)c2oc1=O,6.2%
O=C(c1ccc2c(c1)OCCO2)N1CCc2ccccc2C1,i
C=CCOc1ccc(C(=O)NCCOC)cc1,i
Cc1cc(Br)ccc1OCC(=O)NCCO,i
CCOC(=O)c1ccc(NC(=O)C2CCN(C(=O)c3ccc(C(C)(C)C)cc3)CC2)cc1,i
Cc1sc(NC(=O)Cc2ccc(Cl)cc2)nc1-c1ccccc1,1.1%
O=C(NCC1COc2ccccc2O1)c1ccc(NC(=O)C(c2ccccc2)c2ccccc2)cc1 (stereo not given),5.8%
COC(=O)COc1ccc(NC(=O)c2ccccc2I)cc1,0.62µg/mL*
Cn1c(SCC(=O)N2CCOCC2)nnc1-c1ccccc1,i
Nc1c(C(=O)Nc2c(Cl)cccc2Cl)sc2nc(-c3cccnc3)ccc12,3.6%
O=C(CSc1nnc(-c2ccc(Cl)cc2)n1-c1ccc(F)cc1)Nc1ccccc1F,1.0%
O=C(NCc1ccccn1)NC12CC3CC(CC(C3)C1)C2,i
C1=C(c2cccs2)N2CCN=C2S1,8.0%
O=c1cc(Nc2ccc(Br)cc2)c2ccccc2o1,i
Clc1ccccc1Cn1c2ccccc2c2nc3ccccc3nc21,i
COc1cc(SC)ccc1C(=O)N1CC(C)CC(C)C1 (stereo not given),i
Cc1ccc(-c2nnc(SCc3ccccc3)o2)cc1,i
O=C1NC(=O)C(CCc2ccncc2)(Cc2cccc(Cl)c2Cl)C(=O)N1c1ccccc1F (stereo not given),2.4%
Cc1cc(OCC(=O)NCC2CCCO2)c(C)cc1Br (stereo not given),i
Cc1ccnc(SCC(=O)Nc2nccs2)n1,i
O=C(O)c1ccc(NC(=S)NC(=O)c2cccc(COc3ccccc3)c2)cc1,i
Cc1ccc(C(C)C)c(OC(=O)CSc2ccc(C(F)(F)F)cc2[N+](=O)[O-])c1,i

# New compounds follow
SMILES,Mtb H37Rv
Cc1cc(C)c(NC(=O)Nc2ccc(Cl)cc2)c(Cl)c1,0.8%
CCOC(=O)c1ccc(N/C(N)=N/c2nc(CC(=O)OC)cc(=O)[nH]2)cc1,i
Cc1sc2nc(SCC(=O)N3CCCC3)n(Cc3ccccc3)c(=O)c2c1C,i
O=C(Nc1cccc(F)c1)C1CCN(S(=O)(=O)c2ccc(F)cc2)CC1,0.2%
COC(=O)CNc1ccc2c(c1)OCO2,i
COc1ccc(N2C(=O)NC(=O)/C(=C\c3ccc(C)s3)C2=O)cc1,1.8%
CCOC(=O)c1c(NC(=O)COc2ccccc2C)sc(C(=O)Nc2ccccc2F)c1C,1.0%
COC(=O)c1ccc(/C=N/NC(=O)c2n[nH]c3c2CCCC3)cc1,i
COc1ccccc1-n1c(SCC(=O)N2CCCCC2)nc2ccc(I)cc2c1=O,i
COCCNC(=S)NC1CC(C)(C)NC(C)(C)C1,i
CC(=O)NS(=O)(=O)c1ccc(NC(=O)c2ccc(-c3cccc(Cl)c3C)o2)cc1,i
c1csc(CSc2nc3ccccc3[nH]2)c1,0.9%
COC(=O)c1ccc(-c2nc3ccccc3c(=O)[nH]2)cc1,i
Cc1sc(NC(=O)c2c(F)cccc2F)nc1-c1ccccc1,4.4%
Cc1cc(NC(=O)c2ccc(Cl)cc2Cl)no1,3.3%
COCCCNC(=O)C(=O)Nc1ccc(C)c(Cl)c1,i
Cn1nc(CC(=O)Nc2ccccc2Sc2ccc(Cl)cc2)c2ccccc2c1=O,i
CCCN(CCC)S(=O)(=O)c1ccc(NC(=O)c2ccccc2OCC)cc1,11.4%
Brc1cccc(CNCc2ccccn2)c1,?
O=C(c1cccc2ccccc12)N1CCN(C2C3CC4CC(C3)CC2C4)CC1 (stereo not given),i

# Brought forward from above: 2 entries, followed by the next part.
SMILES,Mtb H37Rv
Brc1cccc(CNCc2ccccn2)c1,?
O=C(c1cccc2ccccc12)N1CCN(C2C3CC4CC(C3)CC2C4)CC1 (stereo not given),i
S=C(NNC(=S)NC1CCCC1)Nc1ccc(Cl)cc1,i
O=C(O)c1cc2n(n1)C(C(F)(F)F)CC(c1ccco1)N2 (stereo not given),i
COc1cccc(C(=O)Nc2ccc(Br)cc2F)c1,i
Cc1ccc(C(=O)C2=C(O)C(=O)N(Cc3ccco3)C2c2cccc(Br)c2)o1 (stereo not given),i
Cc1nn2c(C(F)(F)F)cc(-c3ccc(F)cc3)nc2c1-c1ccccc1,1.4%
Cc1cccc(Oc2nc3c(c(=O)n(C)c(=O)n3C)n2Cc2ccc(F)cc2)c1C,i
COc1ccc(N(CC(=O)N2CCN(Cc3ccccc3)CC2)S(C)(=O)=O)cc1OC,i
CNC(=O)CN(Cc1ccccc1)S(=O)(=O)c1c(C)cc(C)cc1C,i
O=C(c1cc(Cl)ccc1Cl)N1CCN(c2ccc(Cl)cc2)CC1,0.1%
COC(=O)c1c(NC(=O)C(Sc2ccccc2)c2ccccc2)sc2c1CCC2 (stereo not given),i
COc1ccc(-n2c(-c3ccccc3C)n[nH]c2=S)cc1,0.3%
O=C(Nc1ccc(Oc2ccccc2)cc1)C(=O)N1CCCCC1,32.9%
Cc1cc(Cl)ccc1OCC(=O)Nc1ccc(S(=O)(=O)NCCc2ccccc2)cc1,i
O=C(Nc1ccc(Br)cc1F)c1cnccn1,i
O=C(CSc1nnc(-c2ccccc2)n1-c1ccccc1)NC(c1ccccc1)c1ccccc1,i
CCOC(=O)C(C)Sc1nc(-c2ccc(OC)c(OC)c2)cc(C(F)(F)F)c1C#N (stereo not given),i
COc1cc2c(cc1OC)C(C)N(C(=S)NC(=O)c1ccccc1)CC2 (stereo not given),49.3%
Cc1occc1C(=O)Nc1sc2c(c1C(=O)NCc1cccnc1)CCCC2,i
CCOC(=O)c1cc(CC)sc1NC(=O)c1ccncc1,i
CCn1ncc(CN2CCN(C(=O)Nc3ccccc3C(=O)OC)CC2)c1C,i
CCc1ccc(-c2csc3ncn(CC)c(=O)c23)cc1,3.5%
CCOc1cccc(C(=O)Nc2nnc(Cc3ccccc3C)s2)c1,i
CCOc1ccc(NC(=O)c2cccs2)c([N+](=O)[O-])c1,i
Cc1ccc(C(=O)Nc2ccccc2-c2nc3ccccc3s2)cc1C,0.0%
O=C(CN(c1ccccc1)S(=O)(=O)c1ccc(Cl)cc1)N1CCN(c2ccccc2)CC1,i
CC1CCc2nc(NC(=O)Cc3cccs3)sc2C1 (stereo not given),i
Cc1ccc(CSCC(=O)N2CCCC2)cc1,i
Cc1ccc(C)c(-c2cn3c4ccccc4n(CCN4CCOCC4)c3n2)c1,5.5%
CC(C)C(NC(=O)c1ccccc1N(C)S(C)(=O)=O)C(C)C,i
COc1cccc(OCC(O)CN2CCc3ccccc3C2)c1 (stereo not given),i

# 8 of the compounds above, tab-delimited:
Compound	Mtb H37Rv
Cc1ccc(C)c(-c2cn3c4ccccc4n(CCN4CCOCC4)c3n2)c1	5.5%
Cc1ccc(C(=O)Nc2ccccc2-c2nc3ccccc3s2)cc1C	0.0%
CC(C)C(NC(=O)c1ccccc1N(C)S(C)(=O)=O)C(C)C	i
CCOc1cccc(C(=O)Nc2nnc(Cc3ccccc3C)s2)c1	i
COc1cccc(OCC(O)CN2CCc3ccccc3C2)c1 (stereo not given)	i
O=C(CN(c1ccccc1)S(=O)(=O)c1ccc(Cl)cc1)N1CCN(c2ccccc2)CC1	i
CC1CCc2nc(NC(=O)Cc3cccs3)sc2C1 (stereo not given)	i
CCc1ccc(-c2csc3ncn(CC)c(=O)c23)cc1	3.5%

# Next section.
SMILES,Mtb H37Rv
Cc1cccc(C)c1NC(=O)CCC(=O)OCc1ccccc1,i
NS(=O)(=O)c1ccc(CCNS(=O)(=O)c2ccc(Br)cc2)cc1,0.9%
COCc1cc(C)nc2sc(C(=O)Nc3ccc(I)cc3C)c(N)c12,i
O=C(NCCO)c1nc(NCCO)c2ccccc2n1,i
Cc1cc(Br)ccc1OCC(=O)NCCCc1ccccc1,7.6%
CCC(Sc1ccccn1)C(=O)Nc1ccc(Br)cc1 (stereo not given),48.8%
O=C(O)c1cccc(NC(=O)c2cccc(S(=O)(=O)NC3CCCCC3)c2)c1,i
O=C(COc1ccc(Cl)cc1Cl)Nc1ccc(S(=O)(=O)N2CCc3ccccc32)cc1,1.7%
CCOC(=O)Cn1c(=O)oc2ccc(C)cc21,i
